Screening results from PubChem.
NPYLR7 ag = activates Aedes aegypti NPYLR7 receptor. activation, % at 10 µM. HEK293T NPYLR7/Galpha15, GCaMP6s calcium fluorescence. 270,000 tested, 0.15% active; in the data active = activation above about 40%;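 note: 0% = vehicle and 100% = reference agonist at the receptor; some compounds past the cut are filed as inactive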
NPYLR7 ag max-min = second read-out of NPYLR7 ag, no call of its own (marks repeat the call); activation, %; measured here: Max-Min RFU normalised activation; some inactives read as strong as hits;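 span of the calcium signal over five minutes; 0% = vehicle and 100% = native peptide agonist; compound fluorescence can raise it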
Active calls of the source: *.

SMILES | NPYLR7 ag | NPYLR7 ag max-min
CCN(CCO)c1nc(Nc2ccccc2)c2cnn(-c3ccccc3)c2n1 | 1 | -2
COc1ccccc1CNC(=O)C1(C)CCN1Cc1ccc(OC(F)(F)F)cc1 (stereo not drawn) | -2 | -7
Cc1cc(C(=O)Cn2nnc(-c3cccs3)n2)c(C)n1Cc1cccs1 | 3 | 2
Cc1cc(NC(=O)Cn2nc(C)c(S(=O)(=O)NC(C)(C)C)c2C)no1 | -1 | 18
c1cnc(Oc2cccc(CNC3CCCC3)c2)nc1 | 5 | 1
CC(C)N(Cc1nc2scc(-c3ccccc3Cl)c2c(=O)[nH]1)CC(O)c1ccccc1 (stereo not drawn) | 12 | 12
COC(=O)CNC(=O)c1ccn(-c2cccc(Br)c2)n1 | 3 | 4
C=Cc1ccc(Cn2c(C)c(C(=O)NCc3ccc4c(c3)OCO4)sc2=O)cc1 | 16 | 5
Cc1cc2nc(-c3ccccc3)c(N3CCN(C(=O)c4cccnc4Cl)CC3)nc2cc1C | -1 | 1
COc1ncccc1NC(=O)C(=O)N1CCC(c2cccc(F)c2)C1 (stereo not drawn) | -9 | -15
CCCn1c(=O)c2c(nc3n2CCCN3c2ccc(Br)cc2)n(C)c1=O | -1 | -5
Cc1ccc(COC2CCCN(C(=O)c3ccccc3C)C2)cc1 (stereo not drawn) | 6 | 2
Cc1nn(-c2ccc3nncn3n2)c2c1C(c1ccc(F)cc1)CC(=O)N2 (stereo not drawn) | -14 | -21
Cn1ncc2c(N3CCCCC3)nc(NCCCO)nc21 | 3 | -1
Nc1nnc(-c2ccc(Cl)cc2Cl)s1 | -4 | -5
C/C=C/COC(=O)C1=C(C)NC(=O)NC1c1cc(OC)c(OC)c(OC)c1 (stereo not drawn) | -1 | -7
Cc1c(C(=O)NCCCN2CCOCC2)cnc2c(-c3cccc(C(F)(F)F)c3)cnn12 | 19 | 8
O=C(CCN1CCCCO1)N[C@@H](Cc1c[nH]c2ccccc12)C(=O)O | 0 | -1
Cc1sc2nc(-c3cccc(NC(=O)Cn4ccnc4)c3)[nH]c(=O)c2c1C | 6 | 3
Cc1c(C(=O)NCc2ccco2)c(CC(C)C)nn1Cc1ccccc1 | 19 | 18
O=C(COC(=O)c1ccccc1Nc1ccccc1)NCC1CC1 | -5 | -10
COc1ccccc1-n1ccnc1-c1ccc(OCC(N)=O)cc1 | -3 | -3
CSc1nn(CC(=O)Nc2ccc(F)c(F)c2)c(N)c1S(C)(=O)=O | -15 | -21
CCN(Cc1noc(CC(C)C)n1)C(=O)c1cc(C)[nH]c(=O)c1 | 17 | 5
N#Cc1cccc(Cl)c1N1CC(O)C1 | 0 | -10

Nothing new here: 24 of the compounds above.
SMILES | NPYLR7 ag | NPYLR7 ag max-min
CCN(CCO)c1nc(Nc2ccccc2)c2cnn(-c3ccccc3)c2n1 | 1 | -2
COc1ccccc1CNC(=O)C1(C)CCN1Cc1ccc(OC(F)(F)F)cc1 (stereo not drawn) | -2 | -7
Cc1cc(C(=O)Cn2nnc(-c3cccs3)n2)c(C)n1Cc1cccs1 | 3 | 2
Cc1cc(NC(=O)Cn2nc(C)c(S(=O)(=O)NC(C)(C)C)c2C)no1 | -1 | 18
c1cnc(Oc2cccc(CNC3CCCC3)c2)nc1 | 5 | 1
CC(C)N(Cc1nc2scc(-c3ccccc3Cl)c2c(=O)[nH]1)CC(O)c1ccccc1 (stereo not drawn) | 12 | 12
COC(=O)CNC(=O)c1ccn(-c2cccc(Br)c2)n1 | 3 | 4
C=Cc1ccc(Cn2c(C)c(C(=O)NCc3ccc4c(c3)OCO4)sc2=O)cc1 | 16 | 5
Cc1cc2nc(-c3ccccc3)c(N3CCN(C(=O)c4cccnc4Cl)CC3)nc2cc1C | -1 | 1
COc1ncccc1NC(=O)C(=O)N1CCC(c2cccc(F)c2)C1 (stereo not drawn) | -9 | -15
CCCn1c(=O)c2c(nc3n2CCCN3c2ccc(Br)cc2)n(C)c1=O | -1 | -5
Cc1ccc(COC2CCCN(C(=O)c3ccccc3C)C2)cc1 (stereo not drawn) | 6 | 2
Cc1nn(-c2ccc3nncn3n2)c2c1C(c1ccc(F)cc1)CC(=O)N2 (stereo not drawn) | -14 | -21
Cn1ncc2c(N3CCCCC3)nc(NCCCO)nc21 | 3 | -1
Nc1nnc(-c2ccc(Cl)cc2Cl)s1 | -4 | -5
C/C=C/COC(=O)C1=C(C)NC(=O)NC1c1cc(OC)c(OC)c(OC)c1 (stereo not drawn) | -1 | -7
Cc1c(C(=O)NCCCN2CCOCC2)cnc2c(-c3cccc(C(F)(F)F)c3)cnn12 | 19 | 8
O=C(CCN1CCCCO1)N[C@@H](Cc1c[nH]c2ccccc12)C(=O)O | 0 | -1
Cc1sc2nc(-c3cccc(NC(=O)Cn4ccnc4)c3)[nH]c(=O)c2c1C | 6 | 3
Cc1c(C(=O)NCc2ccco2)c(CC(C)C)nn1Cc1ccccc1 | 19 | 18
O=C(COC(=O)c1ccccc1Nc1ccccc1)NCC1CC1 | -5 | -10
COc1ccccc1-n1ccnc1-c1ccc(OCC(N)=O)cc1 | -3 | -3
CSc1nn(CC(=O)Nc2ccc(F)c(F)c2)c(N)c1S(C)(=O)=O | -15 | -21
CCN(Cc1noc(CC(C)C)n1)C(=O)c1cc(C)[nH]c(=O)c1 | 17 | 5

Next section.
SMILES | NPYLR7 ag | NPYLR7 ag max-min
O=C(c1csc(Nc2ccc(OC(F)F)cc2)n1)N1CCN(Cc2ccccc2)CC1 | 13 | 3
CN(c1cc(C(=O)NCc2ccc(Cl)cc2)c2ccccc2n1)C1CCCCC1 | 5 | 1
O=c1[nH]cnc2c1nnn2-c1ccccc1 | -6 | -7
CCn1c(C2CCCN(C(=O)Cn3ccc4ccccc43)C2)nn(C)c1=O (stereo not drawn) | 4 | 2
CCN(C(=O)c1ccc(C)s1)C(C)c1cccc(OC)c1 (stereo not drawn) | 2 | 0
O=C(NC1CC1)c1ccc(NC(=O)N2CCCC2C2CCCCC2)cc1Cl (stereo not drawn) | 3 | 1
O=C(CC1=CCCCC1)N1CCC2(CCCN(Cc3cccc(F)c3F)C2)C1 (stereo not drawn) | 9 | 2
COc1ccc(F)c(F)c1CN1CCC2(CCNC(=O)CC2)CC1 | 1 | -1
CC(C)CNC(=O)C(c1ccccc1)N(C(C)C)C(C)C (stereo not drawn) | 3 | 1
Clc1cccnc1-c1cccc2[nH]ccc12 | 4 | 3
COc1ccccc1-n1[nH]nnc1=S | 0 | -1
CN(C(=O)c1coc(CN2CCN(Cc3ccccc3)CC2)n1)C1CCCCC1 | 3 | 2
Cc1ccccc1C(c1ncccc1C)N(C)C(=O)C1CCN(CC(C)C)CC1 (stereo not drawn) | 12 | 3
Cc1cc(Cn2ccc3c2C(C(=O)NCCc2cccs2)CCC3)no1 (stereo not drawn) | 4 | 0
CCn1cc(C#N)c(=O)n(CC(=O)N2CCCC3CCCCC32)c1=O (stereo not drawn) | 1 | 1
Cc1cccn2c(NC(C)(C)CC(C)(C)C)c(-c3ccccc3Cl)nc12 | 4 | 9
COc1cccc(Oc2ccc(CNC(=O)N3CCC(C)C3)cn2)c1 (stereo not drawn) | -3 | -4
COc1ccc(CC(=O)NCC#Cc2cccc(C(F)(F)F)c2)c(OC)c1 | 6 | 2
COc1ccc(CN(CCc2c[nH]c3ccccc23)C(=O)CN(C(C)C)S(=O)(=O)c2ccc(Br)cc2)cc1OC | 4 | 8
CCOC(=O)c1c(-c2cc(C)ccc2C)csc1N | -6 | -11
COCCCNc1ncnc2c1nc1n2CCCCC1 | 4 | -2
O=C1NC(=O)[C@@H]2CN(Cc3cc4n(n3)CCCNC4)C[C@H]12 | -3 | -9
CCOC(=O)CNc1c(-c2ccc(O)c(OC)c2)nc2cc(C)ccn12 | -8 | -4
Cc1cc(C2=NNC(=CN3CCc4sccc4C3c3cccs3)O2)c(C)o1 (stereo not drawn) | 8 | 13
CN(Cc1cc(C2CC2)n[nH]1)C(=O)c1cc(Cn2ccc3ccccc32)[nH]n1 | 4 | 1

Other entries follow:
SMILES | NPYLR7 ag | NPYLR7 ag max-min
COCCN1N=C(C)C(C)n2c1nc1c2c(=O)n(Cc2cccc3ccccc23)c(=O)n1C (stereo not drawn) | 3 | 5
Cc1noc(C)c1CN(C)C(=O)NCc1ccccc1Cl | -21 | -24
O=C(Cn1c2ccccc2c(=O)c2ccccc21)NCC(=O)OCC1CC1 | -2 | -6
CCOC(=O)c1cc(-c2ccc(OC)cc2)n(-c2ccc(C(=O)NCCCOC(C)C)cc2)n1 | -2 | -4
CCCC1(C2CCN(C(=O)COc3ccccc3)CC2)NC(=O)N(CCc2ccccn2)C1=O (stereo not drawn) | 21 | 12
COCC(=O)Nc1nc2ccccc2n1C1CCCCC1 | -3 | -4
CC1Sc2ccccc2N(Cc2cccc(C(F)(F)F)c2)C1=O (stereo not drawn) | 5 | 2
CCN1CCN(c2c(CN(CCOC)C(=O)c3cccc(Br)c3)c(C)nn2-c2ccccc2)CC1 | 1 | 3
Cc1nn(-c2ccccc2)c(C)c1CN(C)C(=O)C=Cc1cnn(-c2ccccc2)c1 | 1 | 7
COc1ccc(/C=C/C(=O)NNC(=O)COc2ccccc2C)cc1 | 4 | 2
Cn1cc(CN2CCN(C(=O)c3ccco3)CC2)c(-c2cccc(Cl)c2)n1 | -3 | -7
CCOC(=O)C1=C(COC(=O)CCC(=O)c2cc(C)sc2C)NC(=O)NC1C (stereo not drawn) | -5 | -4
O=C(CSc1ccc(-c2ccc(-n3ccnc3)cc2)nn1)NCc1ccccc1Cl | 14 | 4
CCC(CC)NC(=O)c1ccc(N2CCC(C)CC2)c([N+](=O)[O-])c1 | -5 | -10
Cc1ccc(-n2ccnc2SCC(=O)NCCC(=O)N2CCCC2)cc1C | 2 | 3
COc1ccc2c(c1OC)C(=O)N(c1ccc(Cl)cc1)C2 | -5 | -8
N#C/C(=C/c1ccc(Cl)cc1)c1n[nH]c(=O)c2ccccc12 | -10 | -13
O=C(Nc1ccccc1)N1CCN(C(c2ccccc2)c2ccc(Br)cc2)CC1 (stereo not drawn) | 23 | 24
CCN(C)c1c(C)nc2c(OCc3ccc(S(=O)(=O)N(C)C)cc3)cccn12 | 5 | 0
CCCCCC(=O)N1CCC(=O)N(CCOC)C[C@H]2COc3ccc(C)cc3[C@H]21 | 1 | 5
CCc1nc2n(n1)C(=O)C(C(c1cccc(Cl)c1)N1CCN(C)CC1)S2 (stereo not drawn) | -3 | -7
O=C(c1c2c(nc3ccccc13)-c1ccccc1CC2)N1CC=CCC1 | 0 | 6
Cc1ccccc1NC(=O)CSCCCOc1ccc(F)cc1 | 5 | 3
CCCc1ccc(C(O)c2ncc(-c3cccc(C)c3)[nH]2)cc1 (stereo not drawn) | 1 | 0
N#CC1(NC(=O)CSc2nnc(C3CC3)o2)CCCC1 | 7 | 3

Other structures follow:
SMILES | NPYLR7 ag | NPYLR7 ag max-min
C=CCCOC(=O)N1CC(=O)N(CCc2ccccc2)CC(O)C1 (stereo not drawn) | 4 | 5
CCOC(=O)N1CCN(S(=O)(=O)c2cnc[nH]2)CC1 | 16 | 5
CCOC(=O)COc1ccc(C(O)(C(=O)OCC)C(F)(F)F)c(O)c1 (stereo not drawn) | 1 | -4
Cc1ccc(NC(=O)c2ccc(NS(=O)(=O)c3ccc4[nH]cc(C(=O)O)c(=O)c4c3)cc2)cc1 | -7 | -15
CCc1cc(N2CCCN(C(=O)COC)CC2)nc(N2CCOCC2)n1 | 2 | -7
CCc1ccc(-n2c(C)cn3c4c(=O)n(CCCO)c(=O)n(C)c4nc23)cc1 | 11 | 6
O=C(c1nc2ccccc2[nH]c1=O)N1CCC(N2CCCC2=O)CC1 | 0 | 2
Cn1cnnc1Sc1ccccc1NC(=O)COc1ccc2oc3c(c2c1)CCCC3 | 7 | -1
CCCn1ncc(CN2CCN(Cc3ccccc3F)C(CCO)C2)c1C (stereo not drawn) | -5 | -7
COc1ccc(Cl)c(CN2CCN(c3ccc(C(N)=O)cn3)CC2)c1F | 9 | 10
COCC(C)NC(=O)c1cc2c(=O)n3ccccc3nc2n1C (stereo not drawn) | 0 | -2
Cc1ccc(CN(C)Cc2cc(=O)n3ccsc3n2)cc1 | 18 | 4
Cc1ccc(CN(Cc2ccc3c(c2)OCO3)C(=O)CN(CCN2CCOCC2)S(=O)(=O)c2ccc(Br)cc2)o1 | -10 | -18
CC=CCn1c(=O)c2c(nc3n(CC(=O)OCC)c(C)cn23)n(C)c1=O | 5 | -2
CCOc1cccc(/C=N\Nc2nc(N3CCCC3)nc(N3CCCC3)n2)c1O | -8 | -11
COCC1(C(=O)N(C)Cc2n[nH]c3c2CCCCC3)CCC1 | 11 | 11
O=C(Nc1cccc(Cl)c1)N1CCCC(OCC2CC2)C1 (stereo not drawn) | -2 | 0
COc1cccc(CNC(=O)C(C)N2CCC(COc3ccccn3)CC2)c1 (stereo not drawn) | 5 | 3
COC(=O)c1c(SCC(=O)Nc2ccc(C)cc2)nc(=O)[nH]c1C | 3 | 1
CCOC(=O)COc1ccc2c(=O)c(-c3ccccc3)c(C)oc2c1 | -6 | -11

Single records, as listed above:
Record of `Cc1c(C(=O)NCCCN2CCOCC2)cnc2c(-c3cccc(C(F)(F)F)c3)cnn12` : NPYLR7 ag = 19; NPYLR7 ag max-min = 8
Record of `CC1Sc2ccccc2N(Cc2cccc(C(F)(F)F)c2)C1=O` (stereo not drawn) : NPYLR7 ag = 5; NPYLR7 ag max-min = 2

A portion of the library; count on the stated rates, not on these rows.
